Screens from PubChem BioAssay.
SARS PLP yeast – qHTS of Yeast-based Assay for SARS-CoV PLP. S. cerevisiae expressing SARS-CoV PLpro, growth rescue; control for the full effect not named in the record. Potency, µM (top dose mostly 32.9 µM), for inactives: at the top dose activity, positive = growth rescue. 330,000 tested, 0.19% active. AID 485353, 2010; active means well fitted rising curve with a large enough effect; inconclusive means small, poorly fitted or top-dose-only effect; inactive means no such curve, though single readings can be large or run the other way; further: 0% is about no effect; nearly all actives have a fitted effect of over 55% in size; growth read by luminescence after 48 h
LASV entry inh – qHTS for Inhibitors of binding or entry into cells for Lassa Virus. Lassa virus pseudotype entry inhibition, cell reporter; control for the full effect not named in the record. Potency, µM (doses to about 37.9 µM), inactives show at the top dose activity change, negative = inhibition, most hits filed as inhibitors. 300,000 tested, 1.2% active; active means well fitted inhibition curve with a large enough effect; inconclusive means small, poorly fitted or top-dose-only effect, or effect the other way; inactive means flat fitted curve, though single readings scatter; tested in HEK293 cells; further: on the % scale 0 is the no-effect control and ±100 the full control effect; nearly all actives have a fitted effect of over 50% in size; luciferase read-out
Cruzain noTriton – qHTS Assay for Promiscuous and Specific Inhibitors of Cruzain (without detergent) | 200,000 tested, 2.3% active | Cruzipain (Trypanosoma cruzi), P25779 | purified cruzain, Z-FR-AMC fluorescence, no detergent | Potency, µM, for inactives: max response, negative = inhibition, usual class: inhibitors;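 further: plate controls were enzyme without inhibitor for no effect and buffer without enzyme for full effect; nearly all actives have a fitted effect of over 40% in size; top concentration of the series not given in the record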
Target sequence (P25779 123-467 limits assumed): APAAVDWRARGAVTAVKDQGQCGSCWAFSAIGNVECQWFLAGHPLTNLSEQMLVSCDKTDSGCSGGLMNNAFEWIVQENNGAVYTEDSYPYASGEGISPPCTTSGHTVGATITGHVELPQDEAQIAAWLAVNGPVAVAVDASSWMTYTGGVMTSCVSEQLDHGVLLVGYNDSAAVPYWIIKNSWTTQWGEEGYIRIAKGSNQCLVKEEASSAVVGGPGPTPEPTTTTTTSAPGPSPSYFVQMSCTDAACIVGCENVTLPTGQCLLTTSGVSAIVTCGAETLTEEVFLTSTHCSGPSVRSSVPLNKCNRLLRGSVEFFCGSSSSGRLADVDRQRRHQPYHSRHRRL
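Detergent-free condition (0.00005% Triton X-100) in acetate buffer pH 5.5 with DTT. 1.5 nM enzyme and compound were pre-mixed 15 min, then 2 uM Z-FR-AMC substrate added; reaction progress from fluorescence change between first and third reads (60 s).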
NS1 function inh – qHTS Assay for Inhibitors of Influenza NS1 Protein Function | Potency, µM (titrated, usually from 46.1 µM), inactives show top-dose activity, positive = more growth | S. cerevisiae slowed by influenza A NS1, growth recovery by OD600 | AID 2326, 2010 | 270,000 tested, 0.4% active; active means well fitted rising curve with a large enough effect; inconclusive means small, poorly fitted or top-dose-only effect; inactive means no such curve, though single readings can be large or run the other way; further: nearly all actives have a fitted effect of over 50% in size
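In this qHTS, NS1 from influenza A is expressed in budding yeast, where it slows growth. Cells are switched from glucose to 2% galactose medium (pH 6.0, -URA), treated with compound, and growth recovery is read at OD600.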
RE007 growth inh – qHTS Assay for Inhibitors of the HIV-1 protein Vpr | S. pombe RE007 Vpr strain, BacTiter-Glo ATP luminescence, 24 h; control for the full effect not named in the record | Potency, µM (series often up to 92.2 µM), without a hit: at the top dose activity change, negative = less growth | 360,000 tested, 0.21% active; active = well fitted falling curve with a large enough effect; inconclusive = small, poorly fitted or top-dose-only effect; inactive = no such curve, though single readings can be large or run the other way;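 further: on the % scale 0 is the no-effect control and ±100 the full control effect; nearly all actives have a fitted effect of over 50% in size; the assay follows cell death caused by Vpr and the record does not say whether a fall means rescue or toxicity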
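Fission yeast strain RE007, carrying one chromosomally integrated HIV-1 vpr copy, was seeded at OD 0.01 in PMG+AL medium with 23 nL pinned compound. After 24 h at 30 °C and 99% humidity, viability was read by BacTiter-Glo luminescence.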
Cruzain Triton – qHTS Assay for Promiscuous and Specific Inhibitors of Cruzain (with detergent); Potency, µM, without a hit: max response, negative = inhibition, usual class: inhibitors; 200,000 tested, 0.43% active; Cruzipain (Trypanosoma cruzi), P25779; AID 1478, 2009; purified cruzain, Z-FR-AMC fluorescence, 0.01% Triton;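 further: plate controls were neutral wells for no effect and buffer without enzyme for full effect; nearly all actives have a fitted effect of over 40% in size; top concentration of the series not given in the record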
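15 min RT preincubation of 1.5 nM cruzain with compound, then 2 uM Z-FR-AMC added; kinetic AMC fluorescence, 60 s delta. Triton X-100 0.01%, pH 5.5.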
2A StopGo – High Throughput Screening for Foot and Mouth Disease Virus Antivirals; human cells with a luciferase reporter of 2A StopGo recoding; control for the full effect not named in the record; AID 1159524, 2015; Potency, µM (titrated, usually from 57.9 µM), without a hit: top-dose signal change, negative = less light; 410,000 tested, 1.2% active; active = well fitted falling curve with a large enough effect; inconclusive = small, poorly fitted or top-dose-only effect; inactive = no such curve, though single readings can be large or run the other way; tested in HEK293T cells; further: on the % scale 0 is the no-effect control and ±100 the full control effect; nearly all actives have a fitted effect of over 45% in size; luciferase light after 4 h
Marburg entry inh – qHTS for inhibitors of binding or entry into cells for Marburg Virus | Potency, µM (doses to about 37.8 µM), without a hit: top-dose activity change, negative = inhibition, hits mostly inhibitors | Marburg virus pseudotyped entry inhibition, cell reporter; control for the full effect not named in the record; about a third of the inactives were read at about 46 µM | AID 540276, 2011 | 300,000 tested, 1.8% active; active = well fitted inhibition curve with a large enough effect; inconclusive = small, poorly fitted or top-dose-only effect, or effect the other way; inactive = flat fitted curve, though single readings scatter; tested in HEK293 cells; about a fifth of its hits are not listed in these tables; further: on the % scale 0 is the no-effect control and ±100 the full control effect; luciferase read-out
Numbers without * were called inactive; u = inconclusive; x = not tested or not shown; & = joins results of further samples; [ ] = dose if it differs, or a comment. Unless noted, the call rests on the fitted dose curve; in most records, active means well fitted curve in the direction sought with a large enough effect; inconclusive means small, poorly fitted or top-dose-only effect, or another doubt; inactive means no such curve, though single readings can be large; an effect the other way counts as inactive or inconclusive. Potency means the concentration at half of the fitted maximal effect.

mol	SARS PLP yeast	LASV entry inh	Cruzain noTriton	NS1 function inh	RE007 growth inh	Cruzain Triton	2A StopGo	Marburg entry inh
Cc1cc(Cl)c(S(=O)(=O)Nc2ccc3c(c2)OCO3)cc1OCC(=O)NC1CCCCC1	-0.1%	-3.4%	-17.5%	-0.3%	18.4%[3.69 µM]	-1.0%	-7.2%	1.1%
CC(C)c1ccc(NC(=S)Nc2ccc3[nH]c(=O)[nH]c3c2)cc1	-1.3%	x	x	-2.7%	-2.7%	x	6.1%	x
CCOC(=O)c1cccc(NC(=O)c2ccc(NC(=O)c3ccco3)cc2)c1	-3.0%	x	x	8.9%	-1.3%	x	u	x
O=C(N/N=C/c1cc([N+](=O)[O-])ccc1O)c1cccc(NC(=O)c2cccc(Cl)c2)c1	24.8%	11.5%	x	5.4%	104.8%	x	-13.6%	-1.6%[46.1 µM]
Cc1ccc(-n2nc(C(=O)O)cc2-c2ccccc2)cc1	-7.1%	-4.5%	-11.1%	6.8%	14.0%	3.0%	-1.9%	-7.6%
Cc1ccc2cc(CN(CCN3CCCC3)C(=O)Nc3ccccc3)c(=O)[nH]c2c1C	0.8%	-21.6%	-25.0%	-4.4%	4.1%	3.8%	-7.7%	u
O=C(c1ccc(Cl)nc1)N1CCC(Cc2ccccc2)CC1	5.7%	-18.9%	x	-33.7%	22.0%	x	-21.8%	-0.1%[46.1 µM]
CCOc1ccc(N(CC)S(=O)(=O)N2CCCC(C(=O)NCc3ccc(SC)cc3)C2)cc1 (stereo not drawn)	x	u	16.0%	x	x	-4.4%	-9.3%	x
COc1cc(CN(C(=O)COc2ccc(Cl)cc2)c2ccccn2)cc(OC)c1OC	x	21.9%[46.1 µM]	u	x	x	-4.6%	-8.9%	-12.9%[46.1 µM]
Cc1cccc(N2CCN(C(=S)NC3CCCCC3)CC2)c1C	0.3%	x	x	-2.3%	-16.5%	x	0.0%	x
CCc1nnc(NC(=O)c2nc3nccc(C)n3n2)s1	7.9%	2.8%	1.9%	-3.3%	20.8%	-0.1%	-6.0%	9.5%[46.1 µM]
Cn1c(O)c(C=Nc2ccc(N3CCOCC3)cc2)c(=O)n(C)c1=S	-1.7%	-9.8%	x	x	-10.0%	x	0.8%	u
COc1ccc(CCNC(=O)c2ccc3ccccc3n2)cc1OC	-0.4%	u	x	-39.8%	2.5%	x	-27.0%	u
CC(CNS(=O)(=O)c1ccccc1)Sc1ncccn1 (stereo not drawn)	1.0%	u	x	2.8%	-6.6%	x	7.8%	7.7%
CCOC(=O)N1CCC(Nc2ncnc3c2cnn3-c2ccccc2)CC1	-13.6%	3.1%	21.4%	-57.3%	2.8%	0.0%	-19.9%	-11.4%
COc1ccc(N2CCN(C(=O)c3cc(-c4cc(OC)ccc4OC)nc4ccccc34)CC2)cc1	-1.9%	u	x	19.8%	18.6%	x	13.2%	u
Cc1ccc(/C=C/c2onc(C)c2S(=O)(=O)N2CCC(C(=O)NC(C)(C)C)CC2)cc1	-1.7%	x	x	-4.6%	3.6%	x	-21.6%	x
COc1cc(OC)cc(C(=O)N[C@H](C(=O)OCC(=O)c2ccc3c(c2)NC(=O)CO3)C(C)C)c1	-4.8%	16.9%	-0.8%	11.7%	0.2%	-19.6%	-6.6%	3.3%
O=C(COC(=O)COc1ccccc1)NCc1ccco1	1.1%	1.4%	x	x	-1.2%	x	-12.9%	u
CC(C)(C)c1ccc(N2C(=O)CSC2c2cccnc2)cc1 (stereo not drawn)	0.6%	u	x	5.7%	45.8%	x	u	u
CCOC(=O)c1cnn(-c2sc(C(=O)OCC)c(C)c2C(=O)OCC)c1N	x	3.3%	x	-87.7%	-19.0%	x	x	2.8%&-4.3%
CC(NC(=O)C1(c2cccs2)CCOCC1)c1ccccc1 (stereo not drawn)	-8.5%	-11.9%[46.1 µM]	-2.8%&-4.7%	6.4%	0.1%	0.7%&2.0%	-11.7%&-3.0%	-2.7%&-2.7%
Cc1nc2cc(-c3sccc3-n3cccc3)nn2c(C)c1C	-10.5%	-2.4%	u	20.8%	-6.1%	2.0%	-13.4%	u
CC(C)Sc1nc(SCC(=O)O)c2c3c(sc2n1)COC(C)(C)C3	0.3%	x	x	u	-0.5%	x	34.6%[activator]	x
O=C(COc1ccccc1)Nc1ccccc1NS(=O)(=O)c1cccs1	2.8%	10.0%	3.0%	-47.6%	16.0%	-7.7%	-9.0%	-3.3%
COC(=O)c1sc(N)c(C(=O)OC)c1COC(=O)CNS(=O)(=O)c1ccc(C)cc1	3.9%	5.8%	-5.9%	-13.8%	-19.1%	-6.2%	-1.7%	u
O=C(CSc1nnc(-c2ccco2)n1-c1ccccc1)Nc1c(Cl)cc(Cl)cc1C(=O)O	-0.3%	-0.4%	x	x	-21.1%	x	-4.1%	-10.5%
CC(C)C(C(=O)NCc1ccccc1)N(CC1CCCO1)C(=O)CNS(=O)(=O)c1ccccc1 (stereo not drawn)	4.3%	-4.6%	x	-17.3%	2.1%	x	17.1%	-17.9%[46.1 µM]
COc1ccccc1CNC(=O)C1CCC(CNS(=O)(=O)c2ccc3c(c2)CCCC(=O)N3)CC1 (stereo not drawn)	x	8.8%[46.1 µM]	-0.9%	x	x	-1.4%	-16.2%	x
N#CC(C(=O)NC1CCCCC1)c1nc2ccccc2nc1N1CCN(c2ccccc2F)CC1 (stereo not drawn)	1.5%	8.5%	15.6%	11.0%	4.8%	5.6%	5.9%	-15.0%[46.1 µM]
COc1ccc(-c2nc3n(c2C)CCC3)cc1	-2.2%	-1.6%	x	-0.4%	-26.9%	x	52.4%[activator]	u
O=C(NNC(=O)C1CC1c1ccccc1)Nc1cccc(Cl)c1 (stereo not drawn)	-1.5%	-2.5%	1.5%	0.9%	12.2%	0.7%	20.1%	-2.4%
Cc1ccc(N(Cc2cccs2)C(=O)c2ccc(Br)o2)cc1	x	10.5%[46.1 µM]	-15.2%	x	x	-6.3%	-16.1%	0.6%[46.1 µM]
COc1ccc(CCN(C)C(=O)c2cc(-c3ccc(C)cc3)nc3ccccc23)cc1OC	x	u	x	x	-3.8%	x	-6.6%	u
Cc1ccc(CNC(=O)c2ccc3c(O)c(S(=O)(=O)c4ccccc4)c(=O)[nH]c3c2)cc1	x	-1.5%[46.1 µM]	-11.8%	x	x	-2.7%	-9.7%	x
O=C1Nc2ccccc2C(O)(C(=O)NC2CC2)N1c1ccc(Cl)c(Cl)c1 (stereo not drawn)	-3.3%	25.7%	13.1%	-13.3%	9.4%	6.1%	-5.4%	-8.5%
COc1cccc(NC(=O)CSc2ccc3nnc(-c4cccnc4)n3n2)c1	4.2%	x	x	0.3%	8.5%	x	4.2%	x
O=C(COC(=O)COc1ccccc1)Nc1cccnc1Cl	-7.0%	6.2%	x	x	-5.5%	x	-8.6%	-1.4%
Cc1ccc(NC(=O)c2cccc3c2-c2ccccc2C3=O)cc1C	-8.6%	4.0%	-1.1%	2.8%	-6.7%	-2.0%	-19.0%	-29.0%
CCOc1ccc(C2NC(=O)c3sc(=S)n(-c4ccccc4)c3N2)cc1 (stereo not drawn)	-3.3%	-17.2%	-18.4%	-5.1%	9.8%	-12.2%	-1.2%	4.9%
COc1ccccc1NC(=O)Cc1nnc(SCC(=O)NC2=NCCS2)n1C	0.8%	-9.8%[46.1 µM]	x	8.3%	11.9%	x	-7.5%	4.3%[46.1 µM]
CCOc1ccc(C(=O)N2CCCN(C(=O)c3ccc(OCC)cc3)CC2)cc1	7.5%	u	-2.5%	-0.3%	-3.3%	-0.4%	x	0.2%
CCn1cc(SCC(=O)NCc2ccc3c(c2)OCO3)c2ccccc21	-1.4%	x	-9.1%	-1.7%	2.0%	-1.8%	5.1%	x
CCOC(=O)c1c(C)n(-c2ccccc2)c2ccc(OC(=O)c3cccc(OC)c3OC)cc12	x	15.0%[46.1 µM]	-4.4%	x	x	-2.3%	-26.5%	x
Cc1cc(NS(=O)(=O)c2ccc(NC(=O)c3cc4ccccc4o3)cc2)nc(C)n1	-24.6%	22.7%	5.9%	6.5%	-10.4%	-2.3%	38.0%[activator]	-2.3%
CCN(CC)CCSc1nc2c([nH]1)c(=S)n(C)c(=O)n2C	x	19.5%	x	x	-3.8%	x	-19.6%	-10.4%
CCOC(=O)C1CCN(CC(=O)c2c(C)[nH]c3cc(C)ccc23)CC1	-5.1%	-11.2%	-1.3%	-2.4%	-2.7%	-1.7%	-14.3%	u
Cc1c(C(=O)Nc2nnc(C3CC3)s2)oc2c(Cl)cccc12	x	11.7%	x	x	-1.8%	x	24.4%	6.3%
CC(C)C(=O)Nc1nnc(Cc2ccccc2)s1	-5.0%	-3.7%	-1.3%	-7.3%	11.9%	5.3%	16.9%	10.4%
CCCOc1ccc(C(=O)Nc2cccc(NC(=O)c3ccc(Cl)cc3Cl)c2)cc1	x	-23.3%[46.1 µM]	u	x	x	2.0%	-10.4%	x
CC(=O)/C(C#N)=C1\NC(=O)C(Cc2ccccc2C)S1 (stereo not drawn)	0.7%	u	x	-6.2%	-14.9%	x	10.3%	u
COC(=O)C(CCSC)NC(=O)c1cc2c(n(-c3ccc(C)cc3)c1=O)CCCC2=O (stereo not drawn)	-1.5%	-10.0%	x	4.6%	-4.2%	x	2.3%	7.8%[46.1 µM]
O=C1CCSc2ccc(S(=O)(=O)Nc3cccc(C(F)(F)F)c3)cc2N1	x	1.9%[46.1 µM]	10.5%	x	x	-12.0%	25.7%	x
CN(CC(=O)Nc1ccc(N2CCOCC2)cc1)C(=O)CCNC(=O)c1ccccc1Cl	2.3%	21.9%	x	x	1.6%	x	-7.3%	18.1%
